Screening results deposited in PubChem BioAssay by National Center for Advancing Translational Sciences (NCATS).
HPGD block: blocks human HPGD enzyme activity; P15428; purified HPGD, NADH fluorescence kinetic, PGE2 substrate; Potency, µM, for the others: top-dose activity change, negative = inhibition, most hits filed as inhibitors; 150,000 compounds, 4.3% hits; AID 894; active = well fitted inhibition curve with a large enough effect (not every such curve was filed as active); inconclusive = small, poorly fitted or top-dose-only effect, or another doubt; inactive = no such curve, though single readings can be large or run the other way;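 further: top concentration of the series not given in the record; plate controls included wells without enzyme; inactives centre near -10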
Target sequence (P15428 whole entry, looked up): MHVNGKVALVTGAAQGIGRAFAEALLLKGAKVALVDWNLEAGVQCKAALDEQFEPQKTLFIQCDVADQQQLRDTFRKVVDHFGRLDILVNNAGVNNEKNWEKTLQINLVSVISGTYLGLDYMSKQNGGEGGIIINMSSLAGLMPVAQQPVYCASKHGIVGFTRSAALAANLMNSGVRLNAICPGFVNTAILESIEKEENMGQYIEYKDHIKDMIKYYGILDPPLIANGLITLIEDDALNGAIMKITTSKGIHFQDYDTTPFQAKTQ
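NADH formation kinetics: reaction with 30 uM PGE2 and 1 mM NAD+ (final), 20 nM enzyme, Tris-HCl pH 8 with Tween 20, after 15 min compound preincubation at room temperature. Fluorescence change, last versus first of five reads.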
Active calls of the source: *; u = inconclusive; & = joins results of further samples. On the % scale 0 is the no-effect control and ±100 the full control effect; potency means the concentration at half of the fitted maximal effect.

SMILES	HPGD block
CCOc1ccc(NC(=O)c2ccco2)c([N+](=O)[O-])c1	-2%
O=C(NCc1ccccc1)c1cc(=O)[nH]c2ccccc12	-20%
O=C1/C(=C/c2cccs2)N=C(c2cccs2)N1Nc1ccccc1	-5%
COc1cc2[nH]c(=O)n(Cc3ccc(C(=O)NCCCN4CCN(C)CC4)cc3)c(=O)c2cc1OC	u
O=C(CN1CCN(Cc2ccc3c(c2)OCO3)CC1)N1CCc2[nH]c3ccccc3c2C1	-1%
CCOC(=O)c1cnn(-c2nc(CC)nc3sc4c(c23)CCC4)c1N	-9%
Cc1ccc(S(=O)(=O)N(C)CC(=O)N2CCc3ccccc32)cc1	-3%
Cc1c(NC(=O)CCN2C(=O)c3ccccc3C2=O)c(=O)n(-c2ccccc2)n1C	-9%
CC(C)c1nnc(NC(=O)CCC(=O)N2CCN(C3CCCCC3)CC2)s1	-9%
COc1ccc(OCC(=O)Nc2cccc(C(C)=O)c2)cc1	-13%

Among those listed so far, these have a carbonyl joined to an NH by a bond outside any ring:
SMILES	HPGD block
CCOc1ccc(NC(=O)c2ccco2)c([N+](=O)[O-])c1	-2%
O=C(NCc1ccccc1)c1cc(=O)[nH]c2ccccc12	-20%
COc1cc2[nH]c(=O)n(Cc3ccc(C(=O)NCCCN4CCN(C)CC4)cc3)c(=O)c2cc1OC	u
Cc1c(NC(=O)CCN2C(=O)c3ccccc3C2=O)c(=O)n(-c2ccccc2)n1C	-9%
CC(C)c1nnc(NC(=O)CCC(=O)N2CCN(C3CCCCC3)CC2)s1	-9%
COc1ccc(OCC(=O)Nc2cccc(C(C)=O)c2)cc1	-13%

Additional results follow.
SMILES	HPGD block
COC(=O)c1ccccc1NC(=O)NCc1ccccn1	-29%
CN(C)c1ccc(C(=O)OCc2ccc(Br)cc2)cc1	u
CCOC(=O)N1CCN(C(=O)CSc2nc3c(c(=O)n2-c2ccccc2OC)SCC3)CC1	-7%
CC(C)(C)NC(=O)c1ccc(NC(=O)C2COc3ccccc3O2)cc1 (stereo not drawn)	-10%
O=S(CC(O)COCc1ccc(Cl)cc1)c1ccccn1 (stereo not drawn)	-2%
CCOC(=O)c1cccc(NC(=O)CCS(=O)(=O)c2cccc3nsnc23)c1	u
COc1ccccc1CNC(=O)CCS(=O)(=O)c1cccc2nonc12	-14%
CCCn1c(=O)c(F)cn(Cc2ccc(OC)c([N+](=O)[O-])c2)c1=O	-6%
C=CCn1c(COc2ccc(Cl)cc2)nnc1SCC(=O)NCC(=O)OCC	-3%
O=C(Nc1ccccc1)c1nn(-c2ccccc2)c(=O)cc1C(F)(F)F	-12%
CN(C(=O)COC(=O)c1nc(-c2ccccc2)n(-c2ccccc2)n1)C1CCS(=O)(=O)C1 (stereo not drawn)	-2%
Cc1ccc(NC(=O)C(=O)c2c(-c3ccccc3)cc3ccccn23)cc1S(=O)(=O)N1CCOCC1	-12%
O=C1NC2(CCCCC2)C(=O)N1Cc1ccc([N+](=O)[O-])cc1	-4%
CC1(C)CC(=O)C2=C(C1)OC(N)=C(C#N)C21CCN(C(=O)OCc2ccccc2)CC1	-27%
CCn1c2ccccc2c2cc(C3C(C#N)=C(C)NC(C)=C3C#N)ccc21	u
Cc1ccc(C23OC(=O)C(C)(C)C2OC(=O)C3(C)C)cc1 (stereo not drawn)	-11%
CCOc1ccccc1N1CCN(S(=O)(=O)c2cccc3nsnc23)CC1	-1%
Cc1nc2ccc(-n3ccc(=O)cc3)cc2s1	-9%
Cc1ccc(S(=O)(=O)N(C)CCCC(=O)NCc2ccc3c(c2)OCO3)cc1	-10%
CS(=O)(=O)N(Cc1ccco1)CC(O)Cn1c2ccccc2c2ccccc21 (stereo not drawn)	-28%
CCOc1ccc(S(=O)(=O)NCCC(=O)OC(C)C(=O)N2CCc3ccccc32)cc1 (stereo not drawn)	-2%
Cc1nc2ccccn2c1C(=O)NN=C1C2CC3CC(C2)CC1C3	-1%
Cc1ccc(S(=O)(=O)N2CCCOC2CNC(=O)C(=O)NCc2cccnc2)cc1 (stereo not drawn)	-2%
CCn1c(NC(=O)Nc2ccccc2OC)nc2ccccc21	-1%
O=C(Nc1ccccc1)N1CCCC1	-10%
CCc1cccc(CC)c1N(COC)C(=O)Cn1nnc2ccccc21	-10%
Cc1ncc([N+](=O)[O-])n1Cc1cccc2ccccc12	-22%
CCCCn1c(=O)[nH]c(=O)c2c1nc(-c1ccncc1)n2CCOC	-22%
NC(=O)c1ccsc1NC(=O)C1CCCCC1	-6%
C=CC(C)(O)CCCC(C)CCCC(C)CCCC(C)C (stereo not drawn)	-1%&2%
O=C(NCc1cccnc1)c1ccc(Cl)cc1[N+](=O)[O-]	-3%
O=C(Cn1nc(C(F)(F)F)c2c1CCCC2)NC1CCCC1	-12%
COC(=O)c1cccc(NC(=O)CN2CCC(NC(=O)c3cc(OC)c(OC)c(OC)c3)CC2)c1	1%
CCCCCCn1c(CN2CCN(CCO)CC2)nc2c1c(=O)n(C)c(=O)n2C	-7%
CCOC(=O)c1ccc(NC(=O)c2cn(CCC#N)nc2-c2ccc3c(c2)OCCO3)cc1	-21%
Cc1ccc(CS(=O)(=O)CCC(=O)NCCCN2CCCC2)cc1	-1%
CNCCc1ccccn1	-5%&-5%&3%
O=C(NCc1ccc(F)cc1)C1CCN(S(=O)(=O)c2ccc3c(c2)OCCCO3)CC1	-4%
CC(C)c1nccn1S(=O)(=O)c1cccc([N+](=O)[O-])c1	-7%
CCOc1cc(/C=N/NC(=O)CSc2nncn2C)ccc1OC(=O)c1ccc(Cl)cc1	-13%
C=CCN1CC(c2nc3ccccc3n2Cc2ccccc2)CC1=O (stereo not drawn)	-10%
O=C(Nc1cccc(Cl)c1)Nc1nccs1	-10%
Cc1cc(C)c2c(c1)cc(C)c1nnc(SCC(=O)Nc3ccc(S(=O)(=O)N4CCCCC4)cc3)n12	-7%
COc1ccc(NC(=O)c2oc3ccccc3c2C)c(OC)c1	u
CCOc1ccccc1NC(=O)CSc1nnc(Cc2cccn2C)n1-c1ccc(F)cc1	-17%
CCOC(=O)C1(CC)NC(c2ccco2)C2C(=O)N(CC)C(=O)C21 (stereo not drawn)	-14%
CN(C)CCCN1C(=O)C(=O)/C(=C(/O)c2ccncc2)C1c1cccc(Br)c1 (stereo not drawn)	-4%
O=C(Cn1cccc1C(=O)c1ccccc1)NCc1cccs1	-6%
CCOC(=O)c1nnn(-c2nonc2N)c1CN(CC)c1ccccc1	-10%
Cc1ccc(C(=O)NC(C)(COc2nonc2C)COc2nonc2C)cc1	-10%

Given as labelled records: part of the list above
SMILES: O=C(Cn1cccc1C(=O)c1ccccc1)NCc1cccs1
  HPGD block: -6%
SMILES: CCOC(=O)c1nnn(-c2nonc2N)c1CN(CC)c1ccccc1
  HPGD block: -10%

(list continues)
SMILES	HPGD block
Cc1cccc(N2CCN(C(=O)c3ccccc3NC(=O)C3CC=CCC3C(=O)O)CC2)c1 (stereo not drawn)	-6%
O=C(CNS(=O)(=O)c1ccc2ccccc2c1)OCC(=O)c1ccc(Br)s1	-14%
COC(=O)C(C)Sc1ncnc2c1nnn2-c1ccc(F)cc1 (stereo not drawn)	u
O=C(NC1CCCC1)c1ccc(CS(=O)(=O)c2cccc(C(F)(F)F)c2)o1	2%
Cc1ccc(N2C(=O)CC(Nc3ccccc3)C2=O)cc1 (stereo not drawn)	-9%
CC1Cc2nc(SCC(=O)NC3CCCCC3)n(C)c(=O)c2S1 (stereo not drawn)	40µM*
CCCCNC(=O)c1onc(CSc2ccccc2)c1C(=O)O	-19%
Cc1nn2c(CN(C(=O)CN3CCOCC3)c3ccccc3)nnc2c2ccccc12	-3%
CC1(OC(=O)c2cnc3ccccc3n2)C(=O)C=C2C=C(c3ccsc3)OC=C2C1=O (stereo not drawn)	-4%
COc1ccc(NC(=O)c2cc(C)on2)cc1OC	-5%
COC(=O)c1ccc(NC(=O)Cc2ccc(C)cc2)cc1	-14%
COC/C=C/C1=CC2=CC(=O)C(C)(OC(=O)c3cnc4ccccc4n3)C(=O)C2=CN1Cc1ccc2c(c1)OCO2 (stereo not drawn)	-3%
COc1ccc(/C=C/C(=O)NCCCn2ccnc2)cc1	-14%
C[C@@H]1CCC2[C@](C)(CO)[C@@H](O)CC[C@]2(C)[C@]12CCC(CO)(CCO)O2 (stereo partly drawn)	-6%
COc1cc(NC(=O)c2ccccc2Cl)ccc1NC(=O)c1ccco1	-24%
COc1ccc(NC(=O)CN(C)C(C)C(=O)N2CCCCC2)cc1 (stereo not drawn)	-1%
CCn1c(SCC(=O)NCc2ccco2)nnc1C(C)C	-22%
CN1C(=O)OC(C)(CCc2ccccc2)C1(C)O (stereo not drawn)	-13%
CC1Cc2nc(SCC(=O)NCc3ccccc3)n(Cc3ccccc3)c(=O)c2S1 (stereo not drawn)	-18%
Cc1ccc(NC(=O)c2nc[nH]c2C(=O)Nc2ccc(C)cc2)cc1	-18%
O=C(Nc1ccccc1)c1ccc2nsnc2c1	u
COC(=O)CCC(=O)Nc1ccc(Br)cc1	u
CCCCC(CC)COC(=O)c1ccc(N(C)C)cc1 (stereo not drawn)	-4%
O=C1c2ccccc2S(=O)(=O)N1CC1CC(c2ccccc2Cl)=NO1 (stereo not drawn)	14µM*
Cc1cc(C)n(-c2nc3ccccc3nc2N2CCN(S(=O)(=O)c3ccc4ccccc4c3)CC2)n1	u
CCOC(=O)CSc1cccc2cccnc12	u
CC(C)c1ccc(C2NC(=S)NC3=C2C(=O)CC(C)(C)C3)cc1 (stereo not drawn)	-11%
COc1ccc(-n2c(=O)[nH]cc(C(=O)Nc3ccccc3)c2=O)cc1	-14%
Cc1cc(=O)[nH]c(SC/C=C/c2ccccc2)n1	-16%
COc1ccc(NS(=O)(=O)c2cc(C(=O)O)ccc2C)cc1	-7%
COc1ccc(C(=O)c2oc3ccccc3c2NC(C)=O)cc1	-13%
Cc1cc(C)cc(C(=O)N2CCCCCC2)c1	16µM*
O=C(c1ccc(Cl)c(S(=O)(=O)NCc2ccco2)c1)N1CCN(c2ccc(F)cc2)CC1	-4%
N#Cc1c(/N=C/c2ccco2)sc2c1CCCCC2	-28%
CCS(=O)(=O)c1ccc2c(c1)N(S(=O)(=O)c1ccc(OC)cc1)CC(C(=O)O)O2 (stereo not drawn)	1%
COC(=O)Cn1c(=O)cnc2ccccc21	-21%
CCOc1ccccc1NC(=O)/C(C#N)=C/c1c(C)nn(-c2ccccc2)c1Cl	-12%
COCCCNC(=O)c1c(N)n(-c2ccc(S(N)(=O)=O)cc2)c2nc3ccccc3nc12	u
CCOc1ccc(NC(=O)CSc2nc3c(c(=O)n2C)SC(C)C3)cc1 (stereo not drawn)	-13%
Cc1ocnc1C(=O)Nc1ccc(Cl)cc1	-14%
CC12C(=O)N(CCC(=O)O)C(=O)C1C1C=CC2C1 (stereo not drawn)	-5%
Cc1nnc(SCC(=O)NCc2ccc(Cl)cc2)[nH]c1=O	-15%
CC(C)(C)OC(=O)N1CCC[C@H]1c1nnc(SCc2c(Cl)cccc2Cl)o1	-11%
CCCCC[C@H](O)/C=C/C=C\C=C\[C@@H](O)C/C=C\CCCC(=O)O	-16%
C/C(=N\Nc1nc(-c2cc(C)ccc2C)cs1)c1cc2ccccc2oc1=O	u
CC(C)CN=C(N)N=C(N)N	-3%
CC(C)c1ccc(C(=O)CSc2ncn[nH]2)cc1	32µM*
C=CCN=C1CC(C)(C)CC(=O)/C1=C(\O)c1ccccc1	-7%
O=C(Nc1nnc(SCC(=O)N2CCOCC2)s1)c1ccccc1Cl	u
CCC(C)C1C(C#N)=C(N)OC2=C1C(=O)CC(C)(C)C2 (stereo not drawn)	-16%

Fetched by compound from the entries so far, 4 records:
SMILES	HPGD block
CCC(C)C1C(C#N)=C(N)OC2=C1C(=O)CC(C)(C)C2 (stereo not drawn)	-16%
C=CCN=C1CC(C)(C)CC(=O)/C1=C(\O)c1ccccc1	-7%
CCCCC[C@H](O)/C=C/C=C\C=C\[C@@H](O)C/C=C\CCCC(=O)O	-16%
CC12C(=O)N(CCC(=O)O)C(=O)C1C1C=CC2C1 (stereo not drawn)	-5%

Remaining list, next part:
SMILES	HPGD block
O=C(NC1CCCCC1)C(c1ccncc1)N(Cc1ccc2c(c1)OCO2)C(=O)C(F)(F)F (stereo not drawn)	-1%
c1ccc(Oc2nnc(-c3cccs3)c3ccccc23)cc1	-5%
CC(C)(C)CNCCO	-1%
COc1ccccc1Nc1nc(C2(C)CCC(=O)O2)cs1 (stereo not drawn)	1%
CN[C@@H](c1ccncc1)[C@@H](NC)c1ccncc1	-8%
COCCNCCCCOc1ccc(C)cc1[N+](=O)[O-]	-8%
COc1cccc(C2=NOC(C(=O)Nc3cc(C)nn3-c3ccccc3)C2)c1OC (stereo not drawn)	-19%
COc1ccc(C(=O)COC(=O)[C@H](C)Nc2ccc(C(F)(F)F)cc2[N+](=O)[O-])c(OC)c1	-10%
COc1ccc(NC(=O)C2CSC3c4ccccc4C(=O)N23)cc1 (stereo not drawn)	-2%
O=C(CSc1cnc2ccccc2n1)c1ccc(F)cc1	-28%
CCCOc1ccc(NC(=O)CC2C(=O)N(C)C(=S)N2Cc2cccs2)cc1 (stereo not drawn)	-23%
CC(C)(C)Cn1nc(-c2ccc(Cl)cc2)c2c(N)ncnc21	-2%
COc1ccc(C(c2c(O)cc(C)oc2=O)c2c(O)cc(C)oc2=O)cc1	-7%
CCOC(=O)c1nc[nH]c1C	0%
C=CCn1c(=O)c2ccccc2n2c(SCC(=O)c3ccccc3)nnc12	-5%
CCCC(c1nnnn1Cc1ccc(OC)cc1)N1CCN(c2ccccc2)CC1 (stereo not drawn)	-4%

An excerpt; the hit share may differ from the screen's.
